Bioassay records deposited in PubChem by Johns Hopkins Ion Channel Center.
KCNQ2 block = KCNQ2 potassium channel inhibitors, primary screen, cell-based, CHO-K1, FluxOR thallium flux, B-score (AID 2156); Potassium voltage-gated channel subfamily KQT member 2 (Rattus norvegicus), O88943; 20 min; hits give low values; only compounds with negative scores are shown here; some inactives read as strong as hits; B-score at 10 µM; 310,000 tested, 1.1% active;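 active means fluorescence ratio B-score at most minus 3 library SDs, with starting brightness B-score within 2 library SDs, cut at about -5.5 in these data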
Target sequence (O88943 whole entry, looked up): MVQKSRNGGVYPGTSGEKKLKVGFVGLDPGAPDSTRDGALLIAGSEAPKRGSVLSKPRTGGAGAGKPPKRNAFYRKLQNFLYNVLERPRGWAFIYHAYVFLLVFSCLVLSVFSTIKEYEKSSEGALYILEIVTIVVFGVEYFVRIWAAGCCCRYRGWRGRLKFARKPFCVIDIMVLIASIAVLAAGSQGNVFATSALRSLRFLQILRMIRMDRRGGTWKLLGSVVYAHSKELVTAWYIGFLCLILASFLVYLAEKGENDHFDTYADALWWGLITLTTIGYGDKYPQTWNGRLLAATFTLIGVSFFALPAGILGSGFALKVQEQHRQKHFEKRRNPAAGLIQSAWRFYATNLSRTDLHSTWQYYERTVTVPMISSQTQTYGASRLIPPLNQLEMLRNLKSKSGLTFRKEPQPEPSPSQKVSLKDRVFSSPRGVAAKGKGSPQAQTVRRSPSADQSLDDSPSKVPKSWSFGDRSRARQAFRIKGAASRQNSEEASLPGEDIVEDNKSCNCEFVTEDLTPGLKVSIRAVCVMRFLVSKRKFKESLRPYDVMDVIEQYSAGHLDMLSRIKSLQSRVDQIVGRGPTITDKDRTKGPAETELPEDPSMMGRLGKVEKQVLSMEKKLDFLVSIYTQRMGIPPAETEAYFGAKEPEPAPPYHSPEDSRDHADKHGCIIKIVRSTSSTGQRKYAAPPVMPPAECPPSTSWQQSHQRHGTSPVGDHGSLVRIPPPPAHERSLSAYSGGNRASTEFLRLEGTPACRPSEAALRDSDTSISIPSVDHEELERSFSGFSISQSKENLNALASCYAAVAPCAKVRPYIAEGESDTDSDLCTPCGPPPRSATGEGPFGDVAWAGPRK
KCNQ2 block baseline = recorded beside KCNQ2 block, whose call it bears; B-score; measured here: initial fluorescence intensity artifact check;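 brightness before thallium and not channel activity; 0 = typical well and far values either way flag optical interference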
* hit, by the source's call; i = inactive.

The first 2 records, ahead of the listing:
SMILES | KCNQ2 block | KCNQ2 block baseline
CC(=O)C(Sc1nn(C)c(=S)s1)C(=O)Nc1ccccc1 (stereo unspecified) | i | 0.97
CN1CCN(c2ccc(Cl)cc2NC(=O)/C=C/c2ccc(F)cc2)CC1 | -5.6* | -1.1*

Results, repeating the preview:
SMILES | KCNQ2 block | KCNQ2 block baseline
CC(=O)C(Sc1nn(C)c(=S)s1)C(=O)Nc1ccccc1 (stereo unspecified) | i | 0.97
CN1CCN(c2ccc(Cl)cc2NC(=O)/C=C/c2ccc(F)cc2)CC1 | -5.6* | -1.1*
O=C(NCc1ccccc1Cl)c1ccccc1Oc1ccccc1 | i | 0.46
Cc1cc(NC(=O)c2ccco2)ncc1NC(=O)CCc1ccccc1 | i | -0.65
COc1ccccc1S(=O)(=O)Nc1cc(S(=O)(=O)N2CCCCC2)ccc1N1CCOCC1 | i | 1.9
O=C1OC(c2ccccc2)=NC12CC2c1ccc(Cl)cc1 (stereo unspecified) | i | 0.02
OC(Cn1cncn1)(c1ccc(F)cc1)c1ccc(Cl)cc1 (stereo unspecified) | i | 1.6
O=C(Cc1ccc(Cl)cc1)NNC(=O)c1cnccn1 | i | -0.43
CC1CCCC(N2CCN(C(=O)c3ccc([N+](=O)[O-])cc3)CC2)C1 (stereo unspecified) | i | 0.16
CCOC(=O)C1(Cc2cccc(OC)c2)CCN(Cc2cccn2-c2nccs2)CC1 | i | -0.34
CCOc1ccccc1N1CCN(C(=O)/C=C/c2cccc([N+](=O)[O-])c2)CC1 | i | -1.2
CCN(CC)C(=S)SCC(=O)c1ccccc1 | i | 0.6
CC1CCN(C(=O)CC(NC(N)=O)c2ccccc2Cl)CC1 (stereo unspecified) | i | 0.39
CCOC(=O)c1cccc(NC(=O)CN(c2ccc(C)cc2)S(=O)(=O)c2c(C)n[nH]c2C)c1 | i | -1.3
CC(=O)N1C(=O)N(C)C2C1N(C)C(=O)N2C(C)=O (stereo unspecified) | i | 0.5
O=C1[C@H]2[C@@H](/C=C/c3ccccc3)N3C(=O)CN(Cc4ccccn4)C(=O)[C@@]3(Cc3ccccc3)[C@H]2C(=O)N1c1ccccc1 | i | -0.41
COCCN(CCOC)S(=O)(=O)c1ccc(C(=O)Nc2ccncc2)cc1 | i | -0.45
C/C(=N\NC(=S)Nc1ccccc1)C1Cc2ccccc2C(=O)O1 (stereo unspecified) | i | -1.3
S=c1[nH]nc(-c2ccc(Cl)cc2Cl)n1-c1ccc2c(c1)OCCO2 | i | -2.2
CCOc1cc(C)c(S(=O)(=O)NCc2ccccn2)cc1C | i | 0.35
CCn1c(=O)c2c(nc(SCC(=O)NC3CCCC3)n2C)n(C)c1=O | i | -0.5
COc1ccc(Cl)cc1NC(=O)CN(C)C(=O)c1ccc(N2CCCCCC2)c([N+](=O)[O-])c1 | i | 0.04
CCOC(=O)/C(C#N)=C1\SS/C(=C(/C#N)C(=O)OCC)S1 | i | 0.1
Cc1cccc(C(=O)NC2CCCCCCC2)c1 | i | -1.6
CCCOc1ccc(S(=O)(=O)NNC(=O)c2cc3ccccc3o2)cc1 | i | 1.6
N#Cc1c(-c2ccco2)cc(C2CC2)nc1N | i | 0.3
Clc1ccccc1OCCCOc1cccc2cccnc12 | i | 2.1
Cc1cc(Nc2ccccc2)n(CCOC(=O)COc2ccccc2)n1 | i | 2.4
Cc1cc(N2CCOCC2)ccc1/C=C1\SC(=O)N(C(C)C)C1=O | i | -0.25
Cc1ccc(-n2c(SCc3nnc4n3CCC4)nnc2-c2ccccc2)cc1 | i | -1.8
CC(C)n1c(N2CCCC2)nc2c1c(=O)[nH]c(=O)n2C | i | 2.1
O=C(NNS(=O)(=O)c1ccccc1F)c1cccc(S(=O)(=O)N2CCOCC2)c1 | i | 1.2
S=C(Nc1ccccc1)Nc1nc2ccccc2n1CCOc1ccc(Cl)cc1 | i | -0.82
COc1ccc(OCCSc2nc3ccccc3n2CC(=O)O)cc1 | i | -0.81
COc1ccc(NC(=O)COC(=O)CCCC2=NS(=O)(=O)c3ccccc3N2)cc1 | i | -1.6
COC(CNC(=O)c1ccc(Cn2c(=S)[nH]c3cc4c(cc3c2=O)OCO4)cc1)OC | i | -1.4
Cc1nc2ccc(NC(=O)c3ccc(N4C(=O)CCC4=O)cc3)cc2s1 | i | -0.83
CCCCN(C(=O)NC(=O)Nc1c(C)cc(C)cc1C)S(C)(=O)=O | i | -1.2
O=C(COc1ccccc1C(=O)NCc1ccccn1)Nc1ccc(Br)cc1 | i | -0.93
CCNC(=S)N(CCCN(C)C)Cc1cc2cc3c(cc2[nH]c1=O)OCCO3 | i | 0.58

Quoted at random: two entries already listed
SMILES | KCNQ2 block | KCNQ2 block baseline
CC1CCN(C(=O)CC(NC(N)=O)c2ccccc2Cl)CC1 (stereo unspecified) | i | 0.39
COc1ccc(NC(=O)COC(=O)CCCC2=NS(=O)(=O)c3ccccc3N2)cc1 | i | -1.6

Five entries from above, arranged by count of non-hydrogen atoms, lowest first:
SMILES | KCNQ2 block | KCNQ2 block baseline
Cc1cccc(C(=O)NC2CCCCCCC2)c1 | i | -1.6
CCn1c(=O)c2c(nc(SCC(=O)NC3CCCC3)n2C)n(C)c1=O | i | -0.5
Cc1nc2ccc(NC(=O)c3ccc(N4C(=O)CCC4=O)cc3)cc2s1 | i | -0.83
Cc1ccc(-n2c(SCc3nnc4n3CCC4)nnc2-c2ccccc2)cc1 | i | -1.8
O=C(NNS(=O)(=O)c1ccccc1F)c1cccc(S(=O)(=O)N2CCOCC2)c1 | i | 1.2

Next part
SMILES | KCNQ2 block | KCNQ2 block baseline
O=S1(=O)CCOC[C@H](Cc2ccccc2)N1Cc1ccccc1F | i | 0.53
CC(C)CC(=O)NC(c1ccccc1)c1c(O)ccc2ccccc12 (stereo unspecified) | i | 1.1
Cc1cccc(C(=O)NN2C(=O)C3C(c4ccccc4)C=CC(c4ccccc4)C3C2=O)c1 (stereo unspecified) | i | 0.05
COc1ccc(CNC(=S)NCc2ccc(OC(C)C)cc2)cc1 | i | 1.8
CNC(=O)c1c(NC(=O)c2cc(-c3cc(C)c(C)cc3O)n[nH]2)sc2c1CCCC2 | i | 0.31
COc1ccc(C2CC2C(C)=O)cc1 (stereo unspecified) | i | 0.31
NC(=O)CC(NC(=O)c1ccccc1)c1ccc(NCC2CC2)c([N+](=O)[O-])c1 (stereo unspecified) | i | 1.6
Cc1cc(C)c2c(NC(=S)Nc3ccccc3)n[nH]c2n1 | i | 1
COc1ccccc1NC(=O)C(=O)NCC(c1ccco1)N1CCc2ccccc2C1 (stereo unspecified) | i | -1.2
Cc1ccc2sc(N(CCCN(C)C)C(=O)c3ccc(Br)s3)nc2c1C | i | -2
O=[N+]([O-])c1cccc(S(=O)(=O)Nc2ccc(S(=O)(=O)Nc3nccs3)cc2)c1 | i | -0.55
CCCS(=O)(=O)C/C(N)=N/OC(=O)c1ccc(Cl)cc1 | i | 0.78
CCc1ccccc1NC(=O)CC1S/C(=N\c2nccs2)N(CC)C1=O (stereo unspecified) | i | -0.8
CCCCN1C(=O)/C(=C/C=C2/CC(C)(C)CN2C)SC1=S | i | 6.2
COc1ccc(C(=O)C2CCCN(Cc3ccc(C#CCCO)cc3)C2)c(OC)c1 (stereo unspecified) | i | -0.15
Cn1cccc1C(C#N)c1cccc(F)c1C#N (stereo unspecified) | i | -1.4
O=C(Nc1ccccc1C(F)(F)F)NC1CCCCC1 | i | 0.15
CC(CN1CCCC1)OC(=O)c1ccc(Cl)cc1Cl (stereo unspecified) | i | -1.8
Cc1ccsc1/C=C1/SC(=O)N(CC(=O)N2CCCC2)C1=O | i | 0.74
Cc1c(/C=C(\C#N)C(=O)NCc2ccccc2)cc(C#N)n1C | i | -0.52

Compound profiles, from the list above:
COc1ccccc1NC(=O)C(=O)NCC(c1ccco1)N1CCc2ccccc2C1 (stereo unspecified) across the screens: KCNQ2 block = i; KCNQ2 block baseline = -1.2
O=S1(=O)CCOC[C@H](Cc2ccccc2)N1Cc1ccccc1F across the screens: KCNQ2 block = i; KCNQ2 block baseline = 0.53
O=C(Nc1ccccc1C(F)(F)F)NC1CCCCC1 across the screens: KCNQ2 block = i; KCNQ2 block baseline = 0.15

(next part)
SMILES | KCNQ2 block | KCNQ2 block baseline
COC(=O)c1cc2n(n1)CCN(Cc1ccc(OC)cc1)C2=O | i | -0.63
CCOC(=O)c1sc(NC(=O)c2ccccc2OC)nc1C | i | 0.86
C/C(=N\N=C1\NC(=O)C(Cc2ccccc2)S1)c1ccccc1 (stereo unspecified) | i | -0.58
Cc1cc(C)c2cc3c(N)c(C(=O)N4CCOCC4)sc3nc2c1 | i | 0.06
COc1ccc(C)cc1NC(=O)CSc1nnc(COc2ccccc2)n1Cc1ccco1 | i | -1.2
C=CCn1c(SCC(=O)c2cccs2)nc2sc(C)c(C)c2c1=O | i | -0.19
N=C1C(c2nc3ccccc3c(=O)[nH]2)=C(O)CN1CCc1ccccc1 | i | 2.2
COc1cccc(CNC(=O)c2ccc(C)c(S(=O)(=O)N3CCOCC3)c2)c1 | i | 0.04
Cn1cc(Br)c(C(=O)Nc2c(F)c(F)c(F)c(F)c2F)n1 | i | 0.06
CCN(C)Cc1c(C(=O)N2CCc3ccccc3C2)nc2ccc(Cl)cn12 | i | 0.96
Cc1ccc(CNS(=O)(=O)c2cn(C)c(=O)n(C)c2=O)cc1 | i | -2
Oc1ccccc1C(=S)N1CCCC1 | i | 2.4
O=C(NCCCCCCOC1=NS(=O)(=O)c2ccccc21)C(=O)Nc1ccccc1 | i | 0.38
Cc1cc(C)c(OCC(=O)Nc2cc(C(=O)O)cc(C(=O)O)c2)cc1C | i | 2
CC(=O)/C=C/c1ccc2ccccc2n1 | i | -0.61
CCOC(=O)c1ccsc1NC(=O)c1ccco1 | i | 1.1
Cc1cccc(CC2CC(=O)N(c3nc4ccccc4s3)C2=O)c1 (stereo unspecified) | i | 0.01
O=C(O)Cc1c[nH]c2ccc(O)cc12 | i | -0.09
Cc1onc(-c2ccccc2)c1C(=O)NNC(=O)c1ccccc1O | i | 1.6
Cc1cnc(C(=O)NCCc2ccc(S(=O)(=O)NC(=O)NC3CCCCC3)cc2)cn1 | i | 2.3
C=CCn1c(-c2csc(-c3ccc(Cl)cc3)n2)n[nH]c1=S | i | 1.4
O=C(Nc1c2c(nn1-c1ccccc1)CS(=O)(=O)C2)c1cc2ccccc2o1 | i | -0.36
O=C(NCc1ccco1)C1CCCN(S(=O)(=O)Cc2ccccc2)C1 (stereo unspecified) | i | -0.55
CC(/C=C/c1ccccc1)=N\NC(=O)C1CC1(C)c1ccccc1 (stereo unspecified) | i | 0.01
CC(=O)NC(c1ccccc1)c1cc(Cl)c2cccnc2c1O (stereo unspecified) | i | -0.05
CCC(C)C(=O)Nc1nnc(CCc2ccccc2)s1 (stereo unspecified) | i | 1.2
NS(=O)(=O)c1cnccc1Nc1ccc(Cl)cc1 | i | 0.16
O=C(Nc1cccc2ccccc12)c1cnsn1 | i | 0.96
COc1ccccc1CNC(=S)NC1CCCCC1 | i | 0.95
COc1ccc2cc(/C(C)=N/NC(=O)c3cc(-c4cccnc4)nc4ccccc34)ccc2c1 | i | 0.39
CCOC(=O)C1(Cc2ccccc2C(F)(F)F)CCN(C(=O)c2cc(C)n(C)n2)CC1 | i | -0.86
Cc1occc1C(=O)N/N=C/C=C/c1ccccc1[N+](=O)[O-] | i | -1.5
Cc1ccc(NC(=O)CCCn2nc(C)c3c(C)n(-c4ccccc4)nc3c2=O)cc1C | i | 3.5
Nc1ccc(Oc2ncccn2)cc1 | i | -0.2
CC1=NN(c2ccccc2)C(=O)/C1=C\c1cc(C)n(-c2ccccc2)c1C | i | -0.59
CS(=O)(=O)N(CC(O)Cn1c2ccccc2c2ccccc21)c1ccccc1 (stereo unspecified) | i | 0.06
Cc1cccc2c1N(CCOc1ccccc1Cl)C(=O)C2=O | i | 1.6
COc1ccc(OCC(O)CON2C(=O)c3ccccc3C2=O)cc1 (stereo unspecified) | i | 3
COc1cc(-c2nnn(Cc3ccccc3C)n2)cc(OC)c1OC | i | -1.6
CCCCNC(=O)CC1N=C2c3ccccc3N=C(SCC(=O)Nc3cccc(OC)c3)N2C1=O (stereo unspecified) | i | 1.4
CCC(CC)C(=O)OCC(=O)NC12CC3CC(CC(C3)C1)C2 | i | 0.26
O=C1c2ccccc2C(=O)N1CSc1nnc2c3ccccc3n(CCc3ccccc3)c2n1 | i | 0.36
CC(C)CCn1c(COc2ccccc2)n[nH]c1=S | i | 2.7
CC1=CC(C)(C)N2C(=O)C3(C(C#N)=C(N)OC4=C3C(=O)CCC4)c3c(C)c(C)cc1c32 (stereo unspecified) | i | -1.1
COc1ccc(N2CCN(C(=O)CCCn3c(=O)[nH]c4ccsc4c3=O)CC2)cc1 | i | -0.48
COc1ccc(C(=O)c2coc3ccc(O)cc23)cc1 | i | 1.5
COC(=O)C1=C(C)N(C)C(=O)NC1c1cc2c(cc1Br)OCO2 (stereo unspecified) | i | -1.1
FC(F)(F)c1ccccc1/C=N/n1c(C2CCCCC2)n[nH]c1=S | i | -1.9
COc1ccc(NS(=O)(=O)c2cccc(NC(=O)c3ccc(S(=O)(=O)N4CCCCCC4)cc3)c2)cc1 | i | -0.71
CCOC(=O)C1CCCN(C(=O)c2ccc(Cn3c(=S)[nH]c4cc(C(=O)OC)ccc4c3=O)cc2)C1 (stereo unspecified) | i | -0.88
Nc1nc(-c2ccccc2)c(-c2ccc([N+](=O)[O-])cc2)s1 | i | 1.6
CCCN1CCN(C(=O)C2CCN(c3nnc(C)c4c(C)n(-c5ccc(C)cc5)nc34)CC2)CC1 | i | 0.63
COc1ccc(S(=O)(=O)N2Cc3ccccc3CC2C(=O)N2CCOCC2)cc1OC (stereo unspecified) | i | -0.12
COc1cccc(NC(=S)N(C)C2CCN(C)CC2)c1 | i | -1.7
O=S(=O)(Nc1ccc(O)c2ccccc12)c1ccc(OC(F)(F)F)cc1 | i | -0.01
COc1ccccc1-c1noc(-c2ccccc2C(=O)NCC2CCCO2)n1 (stereo unspecified) | i | -1.6
CN1C(=O)CC(c2cn(Cc3ccccc3)c3ccccc23)C1=O (stereo unspecified) | i | -0.49

A portion of the library. The share of hits here may be higher or lower than overall.
